BCR signal inh – qHTS Assay to Find Inhibitors of Chronic Active B-Cell Receptor Signaling; ABC-DLBCL IkBa-CBG/CBR reporter, luminescence ratio, 4 h; Potency, µM (top dose mostly 46.1 µM), inactives show at the highest dose ratio change, negative = lower green/red ratio, usual class: inhibitors; hit rate 0.05% among 340,000; AID 493014, 2011; active means well fitted inhibition curve with a large enough effect in the signal ratio, with a control signal flat, not every such curve was filed as active; inconclusive means small, poorly fitted or top-dose-only effect, or effect the other way, or a change in a side signal; the % refers to the signal ratio;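 further: potency means the concentration at half of the fitted maximal effect; plate controls were basal doxycycline-induced cells for no effect and cells given 10 µM MG132 for full effect; MG132 reads +100%, hits lower the ratio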
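TMD8 human ABC-DLBCL cells with doxycycline-inducible IκBα–green luciferase fusion and unfused red luciferase, in 0.5% FBS medium; compounds up to 46 uM, 4 h at 37C. Green/red luminescence ratio, filter-overlap corrected, fitted to concentration-response curves.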
GALK inhibitor – qHTS Assay for Inhibitors of Human Galactokinase (GALK). P51570. Purified GALK, Kinase-Glo residual ATP luminescence. Potency, µM (titrated, usually from 57.5 µM), for the others: top-dose activity change, negative = inhibition, actives largely listed as inhibitors. hit rate 0.007% among 270,000; further: potency means the concentration at half of the fitted maximal effect; on the % scale 0 is the no-effect control and ±100 the full control effect
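Luminescence from leftover ATP (Ultra-Glo luciferase/luciferin) served as read-out after a 1 h room-temperature reaction of 5 nM GALK with 35 uM ATP and 100 uM galactose.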
Tb PFK block – qHTS Assay to Find Inhibitors of T. brucei phosphofructokinase. AID 485367, 2010. ATP-dependent 6-phosphofructokinase (Trypanosoma brucei brucei), O15648. T. brucei PFK, ADP-Glo luminescence. Potency, µM (doses to about 57.5 µM), for inactives: top-dose activity, negative = inhibition, usual class: inhibitors. hit rate 0.17% among 330,000;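 further: potency means the concentration at half of the fitted maximal effect; 0% = uninhibited 1x PFK enzyme wells and -100% = no-enzyme wells; nearly all actives have a fitted effect of over 60% in size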
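Compounds were pin-transferred as a titration series up to 57 uM into substrate buffer (0.5 mM F6P, 0.1 mM ATP, pH 8.0), then 1.25 nM PFK was added and reactions ran 45 min before ADP-Glo detection.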
a7 integrin act – qHTS for Activators of Integrin-Mediated Alleviation for Muscular Dystrophy; hit rate 0.064% among 350,000; alpha7betagal myoblasts, beta-gal FDG fluorescence, 48 h; Potency, µM (top dose mostly 38.3 µM), without a hit: top-dose activation, actives largely listed as activators;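 further: potency means the concentration at half of the fitted maximal effect; 100% = response of the positive control SU9516; nearly all actives have a fitted effect of over 60% in size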
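Alpha7betagal+/- myoblasts (passage 13) were plated 16-24 hr, then exposed to compounds (1:260 dilution of DMSO stock) for 48 hours at 37C. After MPER lysis, β-galactosidase reporter activity was read as FDG fluorescence (ex 480/em 540) after 30 minutes.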
Giardia killer – Small Molecules that selectively kill Giardia lamblia: qHTS; AID 540267, 2011; activity change, % at 7.66 µM, hits read low; Giardia lamblia trophozoite viability; hit rate 0.15% among 340,000; in the data active means activity change below about -80%; inconclusive means between about -30% and that limit;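 further: parasites exposed to compound for two days anaerobically before the ATP read; on the % scale 0 is the no-effect control and ±100 the full control effect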
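Luminescence from cellular ATP indicates surviving trophozoites (100 cells/well) following 48 hrs anaerobic compound treatment at 37 deg C; signal develops 15-30 min at room temperature.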
PTAP TSG101 blk – qHTS Assay for Iinhibitors of HIV-1 Budding by Blocking the Interaction of PTAP/TSG101; Tumor susceptibility gene 101 protein (Homo sapiens), Q99816; Fluorescence polarization, FITC-PTAP peptide / Tsg101 binding; Potency, µM (doses to about 115 µM), without a hit: at the highest dose activity change, negative = inhibition, actives largely listed as inhibitors; 340,000 tested, under 10 active; AID 493005, 2010; active means well fitted inhibition curve with a large enough effect in the main read-out, with a control signal flat, not every such curve was filed as active; inconclusive means small, poorly fitted or top-dose-only effect, or effect the other way, or a change in a side signal; inactive means no such curve, though single readings can be large or run the other way; further: potency means the concentration at half of the fitted maximal effect; % of control where 0% means no effect
Target sequence (Q99816 whole entry, looked up): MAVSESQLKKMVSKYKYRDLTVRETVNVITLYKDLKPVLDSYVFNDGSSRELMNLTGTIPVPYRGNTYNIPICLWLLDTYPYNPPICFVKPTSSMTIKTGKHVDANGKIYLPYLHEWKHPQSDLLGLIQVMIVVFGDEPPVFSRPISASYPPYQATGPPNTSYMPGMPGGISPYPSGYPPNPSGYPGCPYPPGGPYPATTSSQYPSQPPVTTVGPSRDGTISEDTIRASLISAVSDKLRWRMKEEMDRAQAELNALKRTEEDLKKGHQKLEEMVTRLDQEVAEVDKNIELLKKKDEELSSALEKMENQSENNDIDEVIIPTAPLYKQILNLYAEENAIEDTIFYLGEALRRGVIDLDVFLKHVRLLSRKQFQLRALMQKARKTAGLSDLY
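FP read-out: FITC-PTAP peptide, 50 nM final, binding Tsg101 binding domain, 10 uM final; 20 min, r.t.; 10 mM HEPES pH 7.5, 0.15 M NaCl, 0.01% Tween 20, 3 mM EDTA, 0.1 mM TCEP.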
PKM2 activator – qHTS Assay for Activators of Human Muscle isoform 2 Pyruvate Kinase | Potency, µM (highest dose often 57.5 µM), inactives show at the top dose activation, actives largely listed as activators | AID 1631, 2009 | Pyruvate kinase PKM (Homo sapiens), P14618 | hit rate 0.34% among 260,000 | purified PKM2, Kinase-Glo ATP luminescence, activation; response scale: 0% is enzyme alone, no compound; further: potency means the concentration at half of the fitted maximal effect; on the % scale 0 is the no-effect control and ±100 the full control effect; nearly all actives have a fitted effect of over 55% in size
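Purified hPK-M2 (>95%) run at intermediate activity with 0.1 mM ADP and 0.5 mM PEP in 50 mM imidazole pH 7.2, KCl, MgCl2; 1 h room temperature. ATP formed read by Kinase-Glo luminescence; normalized to uninhibited and no-enzyme controls.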
ASM inhibitor – Inhibitors of Secretory Acid Sphingomyelinase (S-ASM): qHTS; Sphingomyelin phosphodiesterase (Homo sapiens), P17405; placental ASM, HMU-PC fluorogenic substrate, 60 min; Potency, µM (series often up to 57.5 µM), inactives show at the highest dose activity change, negative = inhibition, actives largely listed as inhibitors; hit rate 0.006% among 340,000; AID 504937, 2011; further: potency means the concentration at half of the fitted maximal effect
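HMU-PC0 cleavage (9 uM final) by human placental ASM, 60 min at 37 °C following 10 min compound exposure at RT; stopped at pH 10, fluorescence Ex 386/Em 447 nm.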
FBPA coupling cs – qHTS Assay for Inhibitors of Fructose-1,6-bisphosphate Aldolase from Giardia Lamblia: Coupling assay counterscreen; hit rate 0.67% among 290,000; coupling enzyme system counterscreen, AmpLite Red fluorescence; activity change, negative = inhibition, % at 58.2 µM, hits read low; in the data active means activity change below about -30%; further: on the % scale 0 is the no-effect control and ±100 the full control effect
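Counterscreen lacking aldolase: glyceraldehyde-3-phosphate coupling-enzyme reagent preincubated 10 min at RT with compound (at 57.5 uM final), then substrate/coupling system with AmpLite Red added; fluorescence read at 525/598 nm after 20 min RT.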
B2AR arrestin – qHTS assay of beta-arrestin-biased ligands of beta2-adrenergic receptor | Beta-2 adrenergic receptor (Homo sapiens), P07550 | hit rate 0.02% among 330,000 | Potency, µM (top dose mostly 46.1 µM), inactives show top-dose activation, most hits filed as activators | beta-arrestin recruitment to beta2AR, cell-based reporter | AID 492947, 2010;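 further: potency means the concentration at half of the fitted maximal effect; 0% = DMSO controls and full agonism = EC100 isoproterenol or metaproterenol; nearly all actives have a fitted effect of over 65% in size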
Target sequence (P07550 whole entry, looked up): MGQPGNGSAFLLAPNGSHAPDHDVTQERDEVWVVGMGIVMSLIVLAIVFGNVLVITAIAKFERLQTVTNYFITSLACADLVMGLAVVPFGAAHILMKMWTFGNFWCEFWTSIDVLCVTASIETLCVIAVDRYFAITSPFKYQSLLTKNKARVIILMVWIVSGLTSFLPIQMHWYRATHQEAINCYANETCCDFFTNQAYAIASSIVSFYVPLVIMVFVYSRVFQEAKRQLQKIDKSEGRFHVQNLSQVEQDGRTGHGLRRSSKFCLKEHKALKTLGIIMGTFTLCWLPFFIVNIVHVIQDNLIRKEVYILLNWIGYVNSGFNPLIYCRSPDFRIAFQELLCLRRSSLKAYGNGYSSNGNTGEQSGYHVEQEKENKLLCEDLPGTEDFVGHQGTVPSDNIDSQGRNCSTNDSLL
Active calls of the source: *; ? = inconclusive; . = no result given; [ ] = dose if it differs, or a comment. Unless noted, the call rests on the fitted dose curve; in most records, active means well fitted curve in the direction sought with a large enough effect; inconclusive means small, poorly fitted or top-dose-only effect, or another doubt; inactive means no such curve, though single readings can be large; an effect the other way counts as inactive or inconclusive. This is a subset (hit frequency here may not be typical).

#1 CCOc1ccc(OCC(=O)Nc2ccccc2C(F)(F)F)cc1
#2 CCN(c1cccc(C)c1)C(C(=O)Nc1ccc(OC)cc1)c1cc2c(cc1[N+](=O)[O-])OCO2 (stereo unspecified)
#3 C/C(=N\NC(=O)c1ccccc1[N+](=O)[O-])c1c(O)cc(C)oc1=O
#4 COC(=O)[C@@H](NC(=O)N1CCN(C(=O)C2COc3ccccc3O2)CC1)C(C)C (stereo partly specified)
#5 COc1ccc(Br)cc1/C=N/n1c(C)nnc1C
#6 CC(=O)C1=C(C)Nc2ncnn2C1c1cccc(OCc2ccccc2)c1 (stereo unspecified)
#7 O=C(CNS(=O)(=O)c1ccc(Br)cc1)Nc1ccc2c(c1)OCCO2
#8 CCCCCCCCCCCCC(NC(C)=O)(C(=O)OCC)C(=O)OCC
screen / no.	1	2	3	4	5	6	7	8
ASM inhibitor	-2%	-21%	3%	2%	1%	51%[activator]	1%	4%
a7 integrin act	9%	-11%	?	9%	1%	19%	18%	12%
FBPA coupling cs	0	-3	-1	0	3	7	-1	-5
Giardia killer	-6	19	16	-4	-2	14	-5	1
GALK inhibitor	-1%	1%	2%	0%	0%	-3%	6%	3%
B2AR arrestin	2.6%	-0.9%	?	-1.1%	-0.4%	0.0%	-0.2%	0.2%
Tb PFK block	4%	-2%	-1%	1%	-5%	2%	-3%	-8%
BCR signal inh	-2%	?	?	-3%	-10%	-8%	-1%	2%
PKM2 activator	1%	2%	0%	.	3%	1%	0%	-2%
PTAP TSG101 blk	1%	-2%	2%	0%	-11%	-2%	-6%	-3%

#9 O=C(O)c1cc(Cl)c(Cl)cc1C(=O)N1CCCC1
#10 CC1(C)Cc2ccccc2C(/C(C#N)=N/O)=N1
#11 O=[N+]([O-])c1cc(C(F)(F)F)ccc1N1CCN(S(=O)(=O)c2ccc3ccccc3c2)CC1
#12 CN1C(=O)/C(=C/c2ccccc2OCc2cccc(F)c2)NC1=S
#13 O=C(O)c1nccnc1C(=O)Nc1ccc(Cl)cc1Cl
#14 COc1cc(O)ccc1C(=O)CCc1ccc(O)cc1
#15 O=C(CSc1nnc(-c2cccs2)o1)c1cccs1
#16 CC(C)NC(=O)NC(=O)COC(=O)Cc1c(F)cccc1Cl
screen / no.	9	10	11	12	13	14	15	16
ASM inhibitor	4%	1%	-4%	?	2%	0%	0%	5%
a7 integrin act	-18%	-1%	0%	0%	11%	14%	-19%	0%
FBPA coupling cs	2	-1	-3	-2	10	3	-4	0
Giardia killer	-91*	-7	10	-27	-5	-1	-4	-4
GALK inhibitor	-3%	2%	-1%	-2%	.	-2%	-1%	12%
B2AR arrestin	-0.2%	0.1%	-0.2%	-1.0%	-1.0%	-0.5%	0.6%	-0.1%
Tb PFK block	12%	-3%	-1%	5%	0%	0%	2%	6%
BCR signal inh	1%	11%	20%	11%	3%	-10%	?	5%
PKM2 activator	7%	1%	0%	0%	.	-2%[11.5 µM]	-11%	1%
PTAP TSG101 blk	-2%	-6%	-1%	-3%	0%	-1%	-8%	-11%

#17 CCN(C(=O)CSc1nc2cc(S(=O)(=O)N(CC)CC)ccc2o1)C1CCS(=O)(=O)C1 (stereo unspecified)
#18 COc1ccc(-c2nc(CS(=O)(=O)CC(=O)NCc3cccc(Br)c3)c(C)o2)cc1
#19 NS(=O)(=O)c1ccc(NC(=O)COC(=O)C2(c3ccccc3F)CCCC2)cc1
#20 COc1ccccc1NC(=O)C1=C(C)Nc2nnnn2C1c1cccc(Br)c1 (stereo unspecified)
#21 CN(C)CCCN(CCCNC(=O)/C=N/O)Cc1ccccc1
screen / no.	17	18	19	20	21
ASM inhibitor	2%	?	-1%	1%	1%
a7 integrin act	-15%	-1%	29%	10%	1%
FBPA coupling cs	-2	3	0	4	3
Giardia killer	-1	-2	-10	4	-14
GALK inhibitor	3%	.	.	-2%	0%
B2AR arrestin	-0.4%	-0.1%	-1.6%	-0.9%	-0.6%
Tb PFK block	-26%	-14%	-5%	0%	-6%
BCR signal inh	1%	2%	1%	?	5%
PKM2 activator	-1%	1%	5%	2%	1%
PTAP TSG101 blk	-2%	-2%	-3%	-8%	2%

Entries listed so far with sulfur (7):
#7 O=C(CNS(=O)(=O)c1ccc(Br)cc1)Nc1ccc2c(c1)OCCO2
#11 O=[N+]([O-])c1cc(C(F)(F)F)ccc1N1CCN(S(=O)(=O)c2ccc3ccccc3c2)CC1
#12 CN1C(=O)/C(=C/c2ccccc2OCc2cccc(F)c2)NC1=S
#15 O=C(CSc1nnc(-c2cccs2)o1)c1cccs1
#17 CCN(C(=O)CSc1nc2cc(S(=O)(=O)N(CC)CC)ccc2o1)C1CCS(=O)(=O)C1 (stereo unspecified)
#18 COc1ccc(-c2nc(CS(=O)(=O)CC(=O)NCc3cccc(Br)c3)c(C)o2)cc1
#19 NS(=O)(=O)c1ccc(NC(=O)COC(=O)C2(c3ccccc3F)CCCC2)cc1
screen / no.	7	11	12	15	17	18	19
ASM inhibitor	1%	-4%	?	0%	2%	?	-1%
a7 integrin act	18%	0%	0%	-19%	-15%	-1%	29%
FBPA coupling cs	-1	-3	-2	-4	-2	3	0
Giardia killer	-5	10	-27	-4	-1	-2	-10
GALK inhibitor	6%	-1%	-2%	-1%	3%	.	.
B2AR arrestin	-0.2%	-0.2%	-1.0%	0.6%	-0.4%	-0.1%	-1.6%
Tb PFK block	-3%	-1%	5%	2%	-26%	-14%	-5%
BCR signal inh	-1%	20%	11%	?	1%	2%	1%
PKM2 activator	0%	0%	0%	-11%	-1%	1%	5%
PTAP TSG101 blk	-6%	-1%	-3%	-8%	-2%	-2%	-3%
